Source: PubChem BioAssay
CBX7 inh = CBX7 chromodomain binding inhibitors, primary screen, biochemical, AlphaScreen | Chromobox protein homolog 7 (Homo sapiens), O95931 | AlphaScreen His6-CBX7 / biotin-H3K27me3 peptide binding; hits give low values | normalised signal (fraction of DMSO) (no concentration beside the values) | 1.1% of 66,000 active | AID 1224903, 2016; in the data active means normalised signal below about 0.5;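 further: 100 nL library stock added to about 20 µL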
Target sequence (O95931 whole entry, looked up): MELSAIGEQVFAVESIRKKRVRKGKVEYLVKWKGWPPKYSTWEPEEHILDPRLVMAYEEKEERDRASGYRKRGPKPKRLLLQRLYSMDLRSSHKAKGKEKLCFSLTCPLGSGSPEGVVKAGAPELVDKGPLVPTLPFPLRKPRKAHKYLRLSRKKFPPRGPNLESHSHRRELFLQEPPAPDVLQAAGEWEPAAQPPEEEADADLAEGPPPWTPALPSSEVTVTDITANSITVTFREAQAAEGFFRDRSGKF
CBX7 inh z-score = further read-out of CBX7 inh, marked with its call; z-score; measured here: z-score of CBX7 signal; some inactives read as strong as hits; reference of the scale not given here;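 same signal on another scale; lower means less binding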
An asterisk follows results filed as active; & = joins results of further samples. Not all compounds are listed; rates above refer to the full screens.

SMILES	CBX7 inh	CBX7 inh z-score
COc1ccc(OC)c(CNC(=O)C2CCN(C(=O)N(C)C)CC2)c1	1	0.59
COc1ccc(C2=NOC(C(=O)N(C)c3ccccc3)C2)cc1 (stereo not given)	0.91	-0.82
Cc1cccc(C)c1OCC(O)Cn1ccnc1C (stereo not given)	0.93	-2
CCOc1ccc(NC(=O)CC2C(=O)N(c3ccc(F)cc3)C(=O)N2CCc2sccc2C)cc1 (stereo not given)	1	1.4
O=C(Cn1nc(-c2ccccc2)ccc1=O)NCc1ccccn1	1	-0.23
CN(C)S(=O)(=O)c1ccc(C(=O)N2CC(=O)Nc3ccc(F)cc3C2c2ccc(F)cc2)cc1 (stereo not given)	1.1	1.1
Cc1onc(-c2ccccc2Cl)c1C(=O)NCCc1ccccc1	0.92	-0.51
Cc1cc(C)n2nc(CC(=O)NCc3ccccc3Cl)nc2n1	1.1	2.1
Cc1ccc(CCNC(=O)COc2ccc3c(c2)C(=O)CC(C)(C)O3)cc1	1.4	3.4
Cc1onc(-c2ccccc2Cl)c1C(=O)NCc1ccccc1	1	0.68
CCCc1cc(C(=O)Nc2ccc(CC)cc2)no1	1.1	1.4
CCOc1ccc(-c2nc(CSCC(=O)NC(C)C)c(C)o2)cc1	0.95	-0.69
CCN1CCN(c2ncc(C(=O)Nc3ccc(Br)cc3C)c3ccccc23)CC1	1.5	1
Cc1ccc(-c2nc(C(=O)O)c(C)o2)cc1	1.1	1
O=C(CC1C(=O)N(c2cccc(Cl)c2)C(=O)N1Cc1cccs1)Nc1ccc(F)cc1 (stereo not given)	0.78	-0.9
Cc1ccc(Nc2nc(C(F)(F)F)c(-c3ccc(Cl)cc3)s2)cc1	1.2	4.2
COC(CNC(=O)c1ccc2c(c1)N(Cc1ccccc1Cl)C(=O)c1ccccc1S2)OC	0.93	-0.9
Cc1ccc2c(c1)C(c1ccc(F)cc1)N(C(=O)COc1ccc(Cl)cc1Cl)CC(=O)N2 (stereo not given)	0.8	-1.9
CCc1ccc(NC(=O)CCc2c(C)nc3c(-c4ccccc4)c(C)nn3c2C)cc1	0.91	-1.4
CC(C)COc1ccc(-c2nc3sc4c(c3c(=O)[nH]2)CCCC4)cc1	1.2	1.2
Cc1ccc(-n2nc3c(c2NC(=O)CC(C)C)CSC3)cc1	0.98	-0.79
COc1cc2nc(/C=C\c3ccc(F)cc3)n(-c3ccc(C)cc3)c(=O)c2cc1OC	1	0.65
COc1cccc(-c2nn(C)c3sc(C(=O)Nc4ccc(C)cc4Cl)cc23)c1	1.1	2.6
Cc1ccc(Nc2nc(-c3cccc(N4C(=O)c5ccccc5C4=O)c3)cs2)cc1	0.67&0.85	-7.4&-3.5
NC(=O)c1cc2n(n1)C(C(F)(F)F)CC(c1ccc(Cl)cc1)N2 (stereo not given)	0.94	-1.2

Looked up above:
CCCc1cc(C(=O)Nc2ccc(CC)cc2)no1 in CBX7 inh z-score shows 1.4
CCc1ccc(NC(=O)CCc2c(C)nc3c(-c4ccccc4)c(C)nn3c2C)cc1 in CBX7 inh z-score shows -1.4
COC(CNC(=O)c1ccc2c(c1)N(Cc1ccccc1Cl)C(=O)c1ccccc1S2)OC in CBX7 inh z-score shows -0.9

Returning to the listing; the 4 compounds before the break are reprinted first.
SMILES	CBX7 inh	CBX7 inh z-score
COc1cc2nc(/C=C\c3ccc(F)cc3)n(-c3ccc(C)cc3)c(=O)c2cc1OC	1	0.65
COc1cccc(-c2nn(C)c3sc(C(=O)Nc4ccc(C)cc4Cl)cc23)c1	1.1	2.6
Cc1ccc(Nc2nc(-c3cccc(N4C(=O)c5ccccc5C4=O)c3)cs2)cc1	0.67&0.85	-7.4&-3.5
NC(=O)c1cc2n(n1)C(C(F)(F)F)CC(c1ccc(Cl)cc1)N2 (stereo not given)	0.94	-1.2
O=C(NC1CCCC1)c1cc(-c2ccccc2Cl)nc2ccccc12	1.3	0.92
CCCN(CCC)S(=O)(=O)c1ccc2c(c1)CCN2C(=O)CCC(=O)O	0.94	-0.93
O=c1[nH]c(/C=C/c2c[nH]c3ccccc23)nc2ccccc12	1.1	1.5
Cc1cccn2cc(-c3cccc(NC(=O)Cc4ccccc4)c3)nc12	0.93	-1.3
Cc1ccc(S(=O)(=O)C2(C(=O)Nc3nc4ccc(C)cc4s3)CC2)cc1	0.99	-0.31
COCCNC(=O)C1CCCCN1S(=O)(=O)c1ccc(F)cc1 (stereo not given)	1	1.5
Cc1ccc(S(=O)(=O)NCC(c2cccnc2)N(C)C)cc1 (stereo not given)	0.94	-0.52
CC(=O)N1c2ccc(S(=O)(=O)NCc3ccc(F)cc3)cc2CC1C (stereo not given)	0.82	-0.71
O=C(Nc1cccc(-c2nnc(-c3ccccc3)o2)c1)c1cccc(S(=O)(=O)N2CCOCC2)c1	1	0.18
Cc1ccccc1NC(=O)CC1NC2CCCCC2NC1=O (stereo not given)	1.1	2.4
COc1ccccc1NC(=O)c1cc(-c2ccccc2)nc2ccccc12	0.97	-0.22
O=C(CCn1c(=O)[nH]c2ccccc2c1=O)N1CCN(c2cccc(Cl)c2)CC1	0.9	-0.27
Cc1ccccc1Nc1c(-c2ccc(Cl)cc2)nc2c(C)cccn12	1	-0.046
NC(=O)c1oc2ccccc2c1NC(=O)c1cccc(F)c1	1	0.2
Cc1ccc(CNC(=O)C2CCN(Cc3nc(-c4ccccc4F)oc3C)CC2)cc1	1.1	0.62
Fc1ccccc1Nc1nc(-c2ccccc2F)nc2ccccc12	0.98	-0.026
Cc1cccc(-n2ccnc2SCC(=O)Nc2nc3ccccc3s2)c1	0.86	-0.14
O=C(c1cc2n(n1)C(C(F)(F)F)CC(c1ccc(Cl)cc1)N2)N1CCOCC1 (stereo not given)	1	0.55
Cc1cccc(OCc2nc(C#N)c(NCc3ccccc3Cl)o2)c1	0.5	-6.3
COc1ccc(Nc2c(-c3ccccn3)nc3ccc(Cl)cn23)cc1	0.72	-7.1
O=C(CC1(O)C(=O)N(CCc2ccccc2)c2ccc(Br)cc21)c1ccccc1 (stereo not given)	0.63	-11
COc1ccc(Cc2noc(Cc3c(F)cccc3Cl)n2)cc1	1.4	3.8
COc1ccc(-c2noc(-c3cccc(OC)c3)n2)cc1	1.3	2.4
Cc1ccc(CNC(=O)c2ccc3nc(N4CCOCC4)sc3c2)cc1	1.1	1.5
COc1ccc(Nc2ncc(C(=O)N3CCN(c4ccccc4F)CC3)c3ccccc23)cc1	0.84	-2.6

Record cards, as listed above. Screens in order: CBX7 inh | CBX7 inh z-score
Shown for O=C(CCn1c(=O)[nH]c2ccccc2c1=O)N1CCN(c2cccc(Cl)c2)CC1 → 0.9 | -0.27
Shown for O=c1[nH]c(/C=C/c2c[nH]c3ccccc23)nc2ccccc12 → 1.1 | 1.5
Shown for COc1ccc(-c2noc(-c3cccc(OC)c3)n2)cc1 → 1.3 | 2.4
Shown for Fc1ccccc1Nc1nc(-c2ccccc2F)nc2ccccc12 → 0.98 | -0.026
Shown for Cc1cccn2cc(-c3cccc(NC(=O)Cc4ccccc4)c3)nc12 → 0.93 | -1.3

Continued.
SMILES	CBX7 inh	CBX7 inh z-score
COc1cccc(OC)c1OCC(O)CN1CCCCC1C (stereo not given)	1.1	0.95
CCC(C)NC(=O)C1c2ccccc2C(=O)N1Cc1ccc(F)cc1Cl (stereo not given)	1.1	1.5
CCCC1CCC(C(=O)Nc2ccc3nc(N4CCN(C)CC4)cc(C)c3c2)CC1 (stereo not given)	1.1	2.3
Cc1ccc2c(c1)-c1c(cnn1CC(=O)NCCCN1CCCC1)CO2	0.99	-0.34
CCN(c1cccc(C(F)(F)F)c1)S(=O)(=O)c1ccc2c(c1)CC(C)N2C(C)=O (stereo not given)	0.98	-0.58
Cc1ccc(C(=O)Nc2sc3c(c2C(=O)Nc2ccccn2)CCCCC3)cc1	0.98	-0.4
Cc1ccc(-n2cc(C(=O)Nc3c(F)cccc3F)c3ccccc3c2=O)cc1C	0.96	-0.84
Cc1ccc(NC(=O)c2cnn(-c3ccccc3)c2NC(=O)c2ccccc2)cc1	0.99	-0.46
Cc1cccc(CN2CCN(CC(=O)NCC3COc4ccccc4O3)C2=O)c1 (stereo not given)	1	1.7
O=C(CSc1oc(-c2ccccc2)nc1S(=O)(=O)c1ccc(Cl)cc1)NC1CCCCC1	0.97	-1
Cc1c(C)n(C)c2ccc(C(=O)NC3CCCC3)cc12	0.95	-0.82
CC(=O)Nc1ccc2c(c1)nc(C)n2Cc1ccccc1	1.2	1.8
COc1ccc(C(=O)NCc2nc3ccccc3n2CC(C)C)cc1OC	0.85	-1.7
COc1ccc(C(=O)CN2C3=NCCN3c3ccccc32)cc1OC	1	0.51
Cc1ccc(Nc2nc(-c3cccnc3)nc3ccccc23)cc1	1	1.1
Cc1ccc(CNC(=O)CN2CCN(Cc3ccc(F)cc3)C2=O)cc1	0.82	-2.4
COc1cccc(C(=O)Nc2c3c(nn2-c2ccc(C)cc2C)CSC3)c1OC	0.91	-2.2
CC1=Nc2cc(C(=O)NC3CCCc4ccccc43)ccc2Sc2c(C)ccc(C)c21 (stereo not given)	0.96	-0.69
Cc1ccc(CCN2CC(C(=O)NCCCN3CCCCC3)CC2=O)cc1 (stereo not given)	1	1
Cc1cc(N2CCN(C)CC2)nc2ccc(NC(=O)CCC(=O)NCCCN3CCN(C)CC3)cc12	1	0.86
O=C(Nc1nnc(CCS(=O)(=O)c2ccc(Cl)cc2)s1)c1ccccc1	1	1.7
Cc1ccc(C)c(N(C)C(=O)CCC(=O)Nc2ccc3nc(N4CCOCC4)cc(C)c3c2)c1	0.86	-0.19
COCCn1c(=O)[nH]c2cc(C(=O)N3CCN(c4cccc(C)c4)C(C)C3)ccc2c1=O (stereo not given)	1	0.26
COc1ccccc1OCCn1c(C2CC(=O)N(c3ccc(C)c(C)c3)C2)nc2ccccc21 (stereo not given)	1	0.077
COc1cccc(CNC(=O)C2CCN(C(=O)c3cnn(-c4ccccc4)c3-n3cccc3)CC2)c1	1.2	1.8

The results go on:
SMILES	CBX7 inh	CBX7 inh z-score
Cc1ccc(CNC(=O)C(C)C2Sc3ccccc3NC2=O)cc1 (stereo not given)	1.1	1.1
O=C(NCc1ccccc1)c1cc(-c2ccc(Br)cc2)on1	0.94	-0.073
COC(CNC(=O)c1ccc2c(c1)ncn2-c1ccc(F)c(F)c1)OC	1.1	1.2
O=C(NCc1ccc(Cl)cc1)c1ccc(CNc2c(N3CCOCC3)c(=O)c2=O)cc1	1.4	2.2
Cc1csc2ncc(C(=O)Nc3ccc(F)cc3)c(=O)n12	1	1.4
COC(=O)c1cccc(Oc2nnc(-c3ccc(C)c(C)c3)c3ccccc23)c1	0.96	-0.15
CCOCCCNC(=O)CSCc1nc(-c2ccccc2F)oc1C	1	0.2
Cc1cccc(NC(=O)CSc2nc3c(c(=O)[nH]2)CCC3)c1C	1.2	2.1
Cn1c(=O)c(C(=O)Nc2cccc(F)c2)c(O)c2ccccc21	1.1	1.4
COc1ccc(-n2nc(C(=O)NCC(=O)NC(C)C)c3ccccc3c2=O)cc1OC	0.96	-0.85
CCOc1cccc(N2C(=O)CC(N3CCN(c4ccc(OC)cc4)CC3)C2=O)c1 (stereo not given)	1.1	1.1
CCOc1ccc(CCNC(=O)C2CC(=O)N(CCc3ccc(C)cc3)C2)cc1OCC (stereo not given)	1	0.53
Cc1cccc(C)c1Nc1c(-c2ccc(Cl)cc2)nc2cnccn12	1.2	2.7
CCOC(=O)c1cnc2cc(Cl)c(OC)cc2c1Nc1ccc(C(F)(F)F)cc1	0.98	-0.24
CC1CC(C)CN(S(=O)(=O)c2ccc3c(c2)c(=O)c(C(=O)O)cn3C)C1 (stereo not given)	1.1	0.72
CCN(C(=O)Cn1c(SCc2ccccc2F)nc2ccncc21)c1cccc(C)c1	1	1.2
CC1CCCN(S(=O)(=O)c2ccc3[nH]c(=O)cc(C(=O)NCc4ccccc4Cl)c3c2)C1 (stereo not given)	1	0.096
CCCC(=O)NCCCc1nc2ccccc2n1Cc1ccccc1C	1.2	2.2
O=C1CN(C(=O)c2ccc(F)cc2)C(c2ccc(F)cc2)c2cc(Cl)ccc2N1 (stereo not given)	1.2	1.7
COC(=O)c1c[nH]n2c(NC3CCCCC3)c(-c3cccc(OC)c3)nc12	0.55	-8.8
CCCNC(=O)c1ccc2c(c1)N(Cc1ccccc1F)C(=O)c1ccccc1S2(=O)=O	0.98	-0.58
Cc1ccc(-c2ccc(=O)n(CC(=O)NCC3CCCO3)n2)cc1 (stereo not given)	1	0.23
CCOC(=O)c1oc2ccccc2c1NC(=O)c1ccc(OC(C)C)cc1	1.2	8.2
CCOC(=O)n1nc(Cc2ccncc2)c2ccccc2c1=O	1	2
Cc1ccc(-c2nc(NC(=O)CSc3ccc4ccccc4n3)ns2)cc1	0.99	-0.14

The results go on.
SMILES	CBX7 inh	CBX7 inh z-score
CCCC1CCC(CCc2ccc(-c3ccc(C4CCC(CC)CC4)cn3)cc2)CC1 (stereo not given)	0.98	-0.47
CCN(CCNC(=O)c1cc(Nc2ccc(OC)cc2)nc2ccccc12)c1ccccc1	0.83	-0.17
O=C(CSc1nnc(Cc2cc(=O)[nH]c(=O)[nH]2)n1-c1ccc(Cl)cc1)NCCc1ccccc1	0.92	-1.3
Cc1nc(Nc2nc3ccccc3o2)nc(-c2ccc(Cl)cc2)c1C#N	1	0.53
COc1ccc(NC(=O)CN(C)S(=O)(=O)c2ccc3c(c2)n(C)c(=O)c(=O)n3C)cc1	1.3	2.7
O=C(CSc1nnc(-c2cccc(F)c2)n1-c1ccccc1)NC(c1ccccc1)c1ccccc1	0.88	-1.7
COc1cccc(NC(=O)C(CCS(C)(=O)=O)NC(C)=O)c1 (stereo not given)	1	0.57
Cc1oc(-c2cccc(Cl)c2)nc1CN1CCC(C(=O)NC2CCCCCCC2)CC1	1.2	1.8
COc1ccc(N(C)S(=O)(=O)c2ccc3c(c2)CCN3C(=O)C2CCC2)cc1	1	0.22
O=C(Nc1cccc(C(F)(F)F)c1)c1cc(-c2ccc3c(c2)OCO3)on1	1.1	1.5
